LYP act – LYP (human) phosphatase activation | activation, % at 2 µM | AID 697 | recombinant LYP, DiFMUP fluorescence; 0 = plate median, 100 = signal doubled | 96,000 tested, 0.11% active | Q9Y2R2;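 active means activation at 2 µM above a set limit, the mean plus 5 SD, cut at about 37% in these data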
Plk1 PBD FP – Plk1 (human) PBD binding inhibition; Plk1 PBD phosphopeptide binding, fluorescence polarization; inhibition, %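 (tested at about 20 µM)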; 97,000 tested, 0.13% active; in the data active means inhibition above about 34%, passing the limit was not always enough
PTPN22 inh 2 – blocks human PTPN22 phosphatase activity; Q9Y2R2; recombinant LYP catalytic domain, DiFMUP fluorescence; inhibition, % at 2 µM; 96,000 tested, 0.21% active;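 active means inhibition at 2 µM at or above a set limit, the screen mean plus 3 SD, cut at about 24% in these data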;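 further: 0% = DMSO with enzyme and 100% = enzyme fully blocked by orthovanadate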
PLK1 kinase inh – inhibitors of human PLK1 kinase. P53350. 97,000 tested, 0.53% active. AID 619. inhibition, % at 10 µM. recombinant PLK1 kinase, TR-FRET peptide phosphorylation;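 active means inhibition of 50% or more in the single-concentration screen; inactive means inhibition below 50%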;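 further: 0% = DMSO max control and 100% = H-89 dihydrochloride min control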
cytoskel mod – alters cytoskeleton assembly in HUVEC cells | inhibition, % at 2 µM | AID 836 | 91,000 tested, 0.18% active | HUVEC TNFa F-actin phalloidin imaging, high content;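 active means inhibition above the batch mean plus 3 SD and confirmed as a hit by visual image inspection, cut at about 30% in these data, passing the limit was not always enough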; further: strong numbers were not always called active
PTK2B oligo ant – Pyk2 (human) oligomerization antagonism | Q293 cells, Pyk2 FERM NanoBiT luminescence; hits give low values | AID 1347419 | 99,000 tested, 0.83% active | z-score (the deposit names both 25 µM and 10 µM);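 active means Z-score of -3 or lower, scaled per plate to the spread of control and sample wells; inactive means z-score above -3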;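 further: negative z-score means lost luminescence so less FERM oligomerization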
Target sequence (Q14289 whole entry, looked up): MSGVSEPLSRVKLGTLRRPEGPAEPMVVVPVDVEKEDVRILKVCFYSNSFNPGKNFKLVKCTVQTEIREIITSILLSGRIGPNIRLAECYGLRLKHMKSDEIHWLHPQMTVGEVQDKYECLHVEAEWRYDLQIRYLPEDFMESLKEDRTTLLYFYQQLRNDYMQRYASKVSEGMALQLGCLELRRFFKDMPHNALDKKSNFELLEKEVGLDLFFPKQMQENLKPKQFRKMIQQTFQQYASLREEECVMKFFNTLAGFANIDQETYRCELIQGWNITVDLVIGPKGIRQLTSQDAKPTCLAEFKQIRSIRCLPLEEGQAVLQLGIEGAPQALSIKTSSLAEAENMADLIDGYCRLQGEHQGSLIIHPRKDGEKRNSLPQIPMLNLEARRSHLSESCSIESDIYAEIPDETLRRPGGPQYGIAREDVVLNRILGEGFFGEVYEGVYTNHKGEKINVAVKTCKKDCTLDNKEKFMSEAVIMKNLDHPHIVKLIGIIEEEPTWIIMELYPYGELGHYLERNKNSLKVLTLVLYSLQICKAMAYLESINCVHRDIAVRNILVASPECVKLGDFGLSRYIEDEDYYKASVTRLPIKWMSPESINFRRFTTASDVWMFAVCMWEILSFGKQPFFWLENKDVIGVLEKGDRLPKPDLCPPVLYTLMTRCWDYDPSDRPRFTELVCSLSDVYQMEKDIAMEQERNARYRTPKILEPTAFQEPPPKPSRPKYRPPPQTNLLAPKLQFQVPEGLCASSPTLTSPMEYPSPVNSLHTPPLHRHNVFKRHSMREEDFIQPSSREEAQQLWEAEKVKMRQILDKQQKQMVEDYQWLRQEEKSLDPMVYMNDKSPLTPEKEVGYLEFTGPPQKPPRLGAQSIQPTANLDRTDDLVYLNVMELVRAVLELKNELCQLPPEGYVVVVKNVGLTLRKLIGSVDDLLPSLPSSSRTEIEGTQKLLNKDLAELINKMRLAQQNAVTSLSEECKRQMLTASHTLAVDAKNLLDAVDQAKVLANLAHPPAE
HIV Rev-RRE inh – disrupts HIV-1 Rev binding to RRE RNA | Rev peptide-RRE RNA binding, FRET | 97,000 tested, 0.79% active | inhibition, % at 8 µM;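 active means inhibition above the screen-wide mean plus 3 SD, cut at about 35% in these data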;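 further: 0% = median DMSO wells and 100% = median Neomycin B control wells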
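Test system: labelled RRE RNA duplex and labelled Rev peptide. Times: 5 min compound–RNA preincubation, then 15 min with peptide, 25 °C. Doses: single-dose 8 µM. Measured by: FRET, excitation 480 nm, emission 540 nm donor and 671 nm acceptor. Measure: % inhibition of FRET ratio versus controls.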
EphB4 ephrin blk – blocks human EphB4 binding to ephrin-B2; 97,000 tested, 0.15% active; EphB4 LBD / TNYL-RAW-Alexa532 peptide, fluorescence polarization; inhibition, % at 7 µM; P54760;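 active means inhibition above the screen-wide mean inhibition plus 3 SD, cut at about 15% in these data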;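 further: 0% = DMSO wells and 100% = excess unlabeled TNYL-RAW peptide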
* = called active by the depositor; · = not tested or not shown. Some of the compounds tested (hit frequency here may not be typical).

Order of values: LYP act, Plk1 PBD FP, PTPN22 inh 2, PLK1 kinase inh, cytoskel mod, PTK2B oligo ant, HIV Rev-RRE inh, EphB4 ephrin blk
- Cc1sc2ncn(CC(=O)NCCCC(=O)N3CCN(c4ncccn4)CC3)c(=O)c2c1C
  9, -18, -10, -11, -30, 1.6, 10, 3
- Cc1ccc2[nH]c(=O)c(-c3noc(C(C)C)n3)cc2c1
  0, 24, -3, 0, -18, ·, 10, 1
- COc1ccc(C(=O)NC(=O)CSc2nnc(-c3ccco3)n2-c2ccccc2)cc1
  8, 26, -9, -6, 27, 2.7, -1, -2
- CCCCNC(=O)c1onc(CCl)c1C(=O)OC
  18, -3, -15, -10, -21, ·, -2, -6
- Cc1ccccc1CS(=O)(=O)CCC(=O)NCCCN1CCOCC1
  -1, 10, -2, 4, 41, ·, 11, 4
- O=C(NCCCO)c1nnc(Cc2c(F)cccc2Cl)o1
  0, -4, 3, -5, 15, 0.93, 5, 3
- COc1ccc(OCC(=O)N2CCN(c3nnc(-c4ccccc4)c4ccccc34)CC2)cc1
  3, -37, -5, 7, 1, -1.1, 18, -69
- CC(=O)Nc1ccc2nc(-c3cccs3)[nH]c2c1
  4, -21, -6, -13, 9, 0.6, 4, 1
- c1ccc(N(c2ccccc2)c2nc(-n3ccnc3)nc(-n3ccnc3)n2)cc1
  -13, -17, 12, 5, -37, -2, 14, -2
- CC(C)[C@H](NC(=O)c1ccccc1)C(=O)OCC(=O)c1ccc2c(c1)NC(=O)CO2
  10, -13, -13, -10, 8, 0.33, 2, 2
- Cc1cc(N2CCN(c3cccc(C)c3C)CC2)nc(-c2ccccc2)n1
  -8, 22, 7, -10, 2, 0.17, 7, -9
- N#Cc1cc2c(nc1SCC(=O)Nc1nccs1)CCCCC2
  -6, -12, 3, -42, 7, 0.77, 3, -4
- COc1ccc(C(=O)CSc2nnc(CNc3nc(-c4ccccc4)cs3)n2C)cc1
  -2, -23, 2, 12, -6, 0.33, -1, -3
- Cc1ccc(C(=O)CSc2nnc(-c3ccccc3N)n2C)cc1C
  -5, -5, 4, -20, 18, 1.2, 9, 6
- Cc1nonc1NC(=O)CSc1nc(C2CCCCC2)nc2ccccc12
  9, -2, -10, -3, 83*, 1.1, 10, 1
- Cc1cc(-c2nc3c4c5c(sc4[nH]c(=O)n3n2)CCC5)c(C)o1
  -6, -19, 3, -12, 6, 1.2, -28, 4
- O=C(Nc1ccc(-c2nnc(-c3ccco3)o2)cc1)C(c1ccccc1)c1ccccc1
  2, -21, -2, -6, -8, 1.8, -2, 7
- CCN(CC)S(=O)(=O)c1cc(C(=O)Oc2cccc(-c3cnc4ccccc4n3)c2)ccc1Br
  -15, -19, 14, -9, 10, -0.39, 5, 3
- NC(=O)C(c1ccc(Cl)cc1)c1ccc(Sc2ccc(Cl)cc2)nn1 (stereo unspecified)
  -13, -6, 12, -4, -4, -0.15, 18, 1
- O=C(CSc1ncn[nH]1)Nc1c(F)cc(F)cc1Br
  -3, -13, 6, 0, 14, 0.17, 7, 7
- CCCCCCSc1nsc(NC(C)=O)n1
  2, 11, -2, -7, -8, 0.59, 2, -2
- CCn1c(SCc2ccccc2)nnc1-c1cccs1
  -8, 28, 5, -3, -5, -0.91, 3, -2
- CN1C(=O)N(C)C2C1N(C)S(=O)(=O)N2C (stereo unspecified)
  12, -34, -10, 13, 4, 0.38, 7, 1
- Cc1ccc(-c2nn3c(C)nnc3s2)cc1NC(=O)c1cccs1
  5, -1, -6, -9, -3, 0.4, -2, 2
- Cc1cccc(/N=C/c2c(O)[nH]c3ccccc23)n1
  -6, 10, 7, -14, 11, -1.3, 0, -2
- c1ccc(CSc2nnc(-c3cccs3)o2)cc1
  -3, -8, 2, -6, -11, -0.94, 4, -4
- NC1=NC2(CCCCCC2)n2c(nc3ccccc32)N1
  12, 13, -10, -2, 1, 0.87, -1, -5
- Cc1ccc(OCc2nnc(SCC(=O)Nc3ccc4c(c3)OCO4)n2C)cc1
  6, -17, -10, -8, 9, 0, 11, -11
- CCN(CC)S(=O)(=O)c1cccc(NC(=O)COC(=O)c2ccc(Br)o2)c1
  -5, -37, 5, -3, -11, 0.17, 15, 8
- COc1cc(OC)cc(C(=O)N2CCC(n3c(C)nc4cc(F)ccc43)CC2)c1
  3, 11, -2, 4, 12, 0.15, 5, -3

Screening data as filed in PubChem BioAssay.
